Screening results: PubChem, Broad Institute
ID4 binder: binds human ID4 protein on microarray; 1.2% of 31,000 active; P47928; small molecule microarray, Flag-ID4 binding, fluorescence F/B; calls only;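 active = spot signal over background at p below 0.07 in all four prints; compounds were printed on slides so no solution concentration is given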;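 note: a binder raises fluorescence above local background on the spot; about 2 pmol printed per array spot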
Target sequence (P47928 whole entry, looked up): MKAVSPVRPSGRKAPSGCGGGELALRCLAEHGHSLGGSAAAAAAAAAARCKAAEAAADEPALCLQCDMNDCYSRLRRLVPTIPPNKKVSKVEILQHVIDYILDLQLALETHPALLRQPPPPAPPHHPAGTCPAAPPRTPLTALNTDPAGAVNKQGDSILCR
Calls only; i = inactive; + = active, no number.

SMILES | ID4 binder
O=C(CC1(O)C(=O)Nc2ccccc21)c1ccc(NC(=O)C2CC2)cc1 (stereo not given) | i
Cc1ccc(CCNc2ccccc2)cn1 | i
CCC(=O)N[C@@H]1CC[C@H](CC(=O)NCC2CCCCC2)O[C@@H]1CO | i
Cc1cc(=O)n(-c2ccccc2)n1C | i
O=C(N[C@H]1C=C[C@@H](CC(=O)N2CCOCC2)O[C@@H]1CO)c1cccc(F)c1 | i
Cn1c(SCc2nc3ccccc3s2)nnc1-c1ccncc1 | i
O=C(NCc1cccnc1)c1cnn2c(C(F)F)cc(C3CC3)nc12 | i
CC(C)C#Cc1ccc2c(c1)O[C@H](CN(C)Cc1ccccc1)[C@H](C)CN([C@@H](C)CO)S2(=O)=O | i
CC(C)C#Cc1ccc2c(c1)O[C@@H](CN(C)CC1CCCC1)[C@H](C)CN([C@H](C)CO)S2(=O)=O | i
C[C@H]1CN([C@@H](C)CO)S(=O)(=O)c2ccc(-c3ccc(F)cc3)cc2O[C@H]1CN(C)CC1CC1 | i
C[C@@H]1CN([C@H](C)CO)C(=O)c2cc(C#CC3(O)CCCC3)cnc2O[C@H]1CN(C)C | i
Cc1ccc(OCCCn2cncn2)c([N+](=O)[O-])c1 | i
COc1ccccc1-c1cnc2c(c1)C(=O)N([C@@H](C)CO)C[C@@H](C)[C@@H](CN(C)Cc1cccnc1)O2 | i
CS(=O)(=O)N1CCN(c2ccccc2NC(=O)c2ccc(N3CCCCC3)c([N+](=O)[O-])c2)CC1 | i
COc1ccc(C2(CNC(=O)c3cccc([N+](=O)[O-])c3)CCOCC2)cc1OC | i
C[C@@H]1CN([C@H](C)CO)S(=O)(=O)c2ccc(-c3ccc(F)cc3)cc2O[C@@H]1CN(C)C(=O)Nc1ccc(F)cc1 | i
CCOc1cc(S(=O)(=O)n2nnc3ccccc32)ccc1F | i
CCN(CC(=O)Nc1cccc(C)c1)S(=O)(=O)c1ccc(Br)cc1 | i
CC(=O)Nc1ccc(NC(=O)CSc2nc3sc(C)c(C)c3c(=O)n2C)cc1 | i
C/C=C/c1cnc2c(c1)C(=O)N([C@H](C)CO)C[C@H](C)[C@@H](CN(C)S(=O)(=O)c1ccc(C)cc1)O2 | i
Cc1ccn2c(NC(=O)C(C)(C)Oc3ccc(Cl)cc3)c(-c3ccc(F)cc3)nc2c1 | i
C[C@@H]1CN([C@H](C)CO)C(=O)c2cc(-c3ccc(C#N)cc3)cnc2O[C@@H]1CN(C)C(=O)CC1CC1 | i
COc1cc(NC(=O)CN(C)S(=O)(=O)c2ccc(Br)cc2)c(OC)cc1Cl | i
Clc1cccc(Nc2nnc(-c3ccccc3)c3ccccc23)c1 | i
COc1ccc(N(CC(=O)Nc2ccc(I)cc2)S(C)(=O)=O)cc1OC | i
COc1ccc(OC)c(S(=O)(=O)N2CCC(C(=O)Nc3cccc(F)c3)CC2)c1 | i
CCn1c(SCC(=O)Nc2ccc(C)cc2C)nnc1-c1cccs1 | i
O=C(COc1ccccc1Cl)Nc1ccc2oc(-c3ccc(F)cc3Cl)nc2c1 | i
O=C(C[C@H]1CC[C@@H](NC(=O)C2CCC2)[C@H](CO)O1)NC1CCCCC1 | i
CCCN(C)C[C@@H]1Oc2cc(C#CC3CCCCC3)ccc2S(=O)(=O)N([C@@H](C)CO)C[C@H]1C | i

Overlap with the part before: 3 entries, followed by the next part.
SMILES | ID4 binder
O=C(COc1ccccc1Cl)Nc1ccc2oc(-c3ccc(F)cc3Cl)nc2c1 | i
O=C(C[C@H]1CC[C@@H](NC(=O)C2CCC2)[C@H](CO)O1)NC1CCCCC1 | i
CCCN(C)C[C@@H]1Oc2cc(C#CC3CCCCC3)ccc2S(=O)(=O)N([C@@H](C)CO)C[C@H]1C | i
COc1ccc(NC(=O)c2ccco2)cc1NC(=O)C(C)Oc1ccc(Cl)cc1Cl (stereo not given) | i
CC(C)NC(=O)N(C)C[C@H]1Oc2cc(-c3cncnc3)ccc2S(=O)(=O)N([C@@H](C)CO)C[C@H]1C | i
C[C@H](CO)N1C[C@H](C)[C@H](CN(C)C(=O)C2CC2)Oc2cc(C#CCN(C)C)ccc2S1(=O)=O | i
O=C(C[C@H]1C=C[C@H](NC(=O)Cc2cccnc2)[C@H](CO)O1)Nc1ccccc1 | i
COc1ccc(-c2cn3cccnc3n2)cc1NC(=O)C(C)C | i
COc1cccc(OCC(=O)Nc2cccc(C(=O)O)c2C)c1 | i
Cn1c(SCC(=O)c2ccccc2)nnc1-c1cc2ccccc2o1 | i
C[C@H](CO)N1C[C@H](C)[C@@H](CN(C)C)Oc2cc(C#CC3CCCC3)ccc2S1(=O)=O | i
COc1ccc(-c2cc(C)nc(SCC(=O)Nc3cccc(Cl)c3Cl)n2)cc1 | +
CSc1cccc(NC(=O)CSc2nnc(-c3ccco3)n2C)c1 | i
Cc1nn(Cc2ccc(F)cc2)c(C)c1NC(=O)C1CC(c2cccc(Br)c2)=NO1 (stereo not given) | i
C/C=C/c1cnc2c(c1)C(=O)N([C@@H](C)CO)C[C@@H](C)[C@H](CN(C)C(=O)C1CC1)O2 | i
CCOC(=O)c1nc(C)sc1-c1ccnn1S(=O)(=O)c1ccccc1C(F)(F)F | i
COC(=O)Cc1c(C)nc2nc(NCc3c(F)cccc3Cl)[nH]n2c1=O | i
CC(C)NC(=O)N(C)C[C@@H]1Oc2cc(C#CCN(C)C)ccc2S(=O)(=O)N([C@@H](C)CO)C[C@@H]1C | i
C[C@@H]1CN([C@H](C)CO)S(=O)(=O)c2ccc(C#Cc3cccc(F)c3)cc2O[C@@H]1CN(C)C(=O)CN1CCOCC1 | i
C[C@H](CO)N1C[C@H](C)[C@H](CN(C)CC2CCOCC2)Oc2ncc(C#Cc3ccccc3)cc2C1=O | i
CCCN(C)C[C@@H]1Oc2cc(-c3cccc(OC)c3)ccc2S(=O)(=O)N([C@H](C)CO)C[C@@H]1C | i
Cc1cc2c(c(Sc3ccccc3)n1)C(=O)OC2 | i
C[C@H]1CN([C@@H](C)CO)C(=O)c2cccc(NC(=O)C3CC3)c2O[C@@H]1CN(C)CC1CCCCC1 | i
N#Cc1c(NC(=O)c2ccc(Cn3cc(Br)cn3)o2)sc2c1CCCCCC2 | i
COc1ccccc1NC(=O)C1=C(C)Nc2ncnn2C1c1ccc(C(=O)O)cc1 (stereo not given) | i
COc1ccc(NC(=O)C(C)N(c2ccc(C)c(C)c2)S(C)(=O)=O)cc1Cl (stereo not given) | i
CNC[C@H]1OCc2ccccc2-c2ccccc2C(=O)N([C@@H](C)CO)C[C@@H]1C | i
C[C@H](O)C#Cc1ccc2c(c1)O[C@@H](CN(C)C(=O)CN(C)C)[C@@H](C)CN([C@H](C)CO)S2(=O)=O | i
CCOC(=O)c1cc(NC(=O)CSc2nc3ccccc3[nH]2)ccc1Cl | i
C[C@@H]1CN([C@@H](C)CO)S(=O)(=O)c2ccc(C#CC3CCCC3)cc2O[C@@H]1CN(C)C(=O)c1cccc(F)c1 | i
Cc1ccc([N+](=O)[O-])c(OCCCN2C(=O)NC(C)(C)C2=O)c1 | i
CNc1nc(SC(C)C(=O)OC)nc(N2CCOCC2)n1 (stereo not given) | i
COc1ccccc1S(=O)(=O)N[C@@H]1CC[C@@H](CC(=O)N2CCCCC2)O[C@H]1CO | i

5 records drawn at random from those above, as already listed:
SMILES | ID4 binder
C[C@@H]1CN([C@H](C)CO)S(=O)(=O)c2ccc(C#Cc3cccc(F)c3)cc2O[C@@H]1CN(C)C(=O)CN1CCOCC1 | i
C[C@@H]1CN([C@@H](C)CO)S(=O)(=O)c2ccc(C#CC3CCCC3)cc2O[C@@H]1CN(C)C(=O)c1cccc(F)c1 | i
Cc1cc2c(c(Sc3ccccc3)n1)C(=O)OC2 | i
Cc1ccc([N+](=O)[O-])c(OCCCN2C(=O)NC(C)(C)C2=O)c1 | i
CNc1nc(SC(C)C(=O)OC)nc(N2CCOCC2)n1 (stereo not given) | i

Laid out differently: 2 of the compounds above.
Compound: Cc1ccc([N+](=O)[O-])c(OCCCN2C(=O)NC(C)(C)C2=O)c1
  ID4 binder: i

Compound: CCCN(C)C[C@@H]1Oc2cc(-c3cccc(OC)c3)ccc2S(=O)(=O)N([C@H](C)CO)C[C@@H]1C
  ID4 binder: i

Continuation:
SMILES | ID4 binder
O=C(CSc1nnnn1-c1ccccc1)Nc1cc(Cl)c(Cl)cc1Cl | i
COCCOC(=O)N1C(=O)[C@@]2(c3ccccc31)[C@H](C(=O)Nc1nc3ccccc3s1)[C@H]1C(=O)O[C@H](c3ccccc3)[C@H](c3ccccc3)N1[C@@H]2c1ccc(OCCO)cc1 | i
C[C@@H]1CN([C@@H](C)CO)C(=O)c2cc(C#CC3(O)CCCC3)cnc2O[C@@H]1CN(C)C(=O)Cc1cccnc1 | i
COc1cccc(OC)c1C(=O)NC(=S)Nc1cccc(-c2nn3c(C)nnc3s2)c1 | i
COC(=O)C[C@@H]1C[C@@H]2c3cc(NC(=O)C4CCOCC4)ccc3O[C@@H]2[C@@H](CO)O1 | i
CCCN(C)C[C@@H]1Oc2cc(/C=C/c3ccccc3)ccc2S(=O)(=O)N([C@@H](C)CO)C[C@@H]1C | i
COC(=O)c1c(NC(=S)N2CCN(Cc3c(C)nn(C)c3C)CC2)sc2c1CCC(C)C2 (stereo not given) | i
O=C(Nc1cc(F)ccc1F)N[C@H]1C=C[C@@H](CC(=O)N2CCc3ccccc3C2)O[C@H]1CO | i
CC(C)C#Cc1cnc2c(c1)C(=O)N([C@@H](C)CO)C[C@@H](C)[C@H](CN(C)Cc1ccccc1)O2 | i
C[C@H](NC(=O)C[C@@H]1CC[C@@H](NC(=O)C2CCC2)[C@@H](CO)O1)c1ccccc1 | i
CC(C)C#Cc1cnc2c(c1)C(=O)N([C@@H](C)CO)C[C@H](C)[C@@H](CN(C)Cc1ccccc1)O2 | i
COc1cccc(NC(=O)CSc2nnc(-c3cccc(C)c3)n2-c2ccccc2)c1 | i
C[C@H]1CN([C@@H](C)CO)C(=O)Cc2cc(NC(=O)Cc3ccccc3)ccc2O[C@H]1CN(C)C | i
C[C@@H]1CN([C@H](C)CO)S(=O)(=O)c2ccc(C#CC3CC3)cc2O[C@@H]1CN(C)CC1CCOCC1 | i
CN(C)CC(=O)Nc1ccc2c(c1)[C@@H]1C[C@H](CC(=O)N3CCN(C)CC3)O[C@@H](CO)[C@@H]1O2 | i
C[C@@H](NC(=O)C[C@H]1C=C[C@@H](NC(=O)C2CCC2)[C@@H](CO)O1)c1ccccc1 | i
COc1ccccc1C(=O)N(Cc1nnc2c3ccccc3c(C)nn12)c1ccccc1 | i
C[C@H]1CN([C@@H](C)CO)C(=O)c2cc(-c3ccc(F)cc3)cnc2O[C@@H]1CN(C)Cc1ccc(F)cc1 | i
O=C(c1c[nH]c2ccccc12)C(O)C(c1ccccc1)N1CCOCC1 (stereo not given) | i
CC1(C)CC(=O)C(C=NCCN2CCN(C(=O)Nc3ccc(Cl)c(Cl)c3)CC2)=C(O)C1 | i
CC(=O)Nc1ccc(C(=O)Nc2ccc(OCC(=O)O)cc2)cc1 | i
CCc1cc(C(=O)OC)c(NC(=O)CC2Sc3ccc(C(F)(F)F)cc3NC2=O)s1 (stereo not given) | i
Cc1c(Br)c([N+](=O)[O-])nn1CC(=O)Nc1cccnc1 | i
CC(C)(C)S(=O)(=O)Cc1nc(-c2cccc(F)c2)cs1 | i
CN(C)C(=O)C[C@@H]1CC[C@H](NC(=O)Nc2cccc(F)c2)[C@@H](CO)O1 | i
COc1cccc(C#Cc2ccc([C@H]3[C@@H](CO)N(C(=O)C4CC4)[C@H]3C#N)cc2)c1 | i
Cc1nc(SCC(=O)Nc2c(C)cccc2C)n[nH]1 | i
CCOC(=O)c1sc(NC(=O)CSc2nc3c(c(C(F)(F)F)n2)CCCC3)c(C#N)c1C | i
CCOc1ccccc1NC(=O)COc1cc(N2CCOCC2)c2ccccc2c1Cl | i
C/C=C/c1cnc2c(c1)C(=O)N([C@@H](C)CO)C[C@H](C)[C@@H](CN(C)CC1CCOCC1)O2 | i
C/C=C/c1cnc2c(c1)C(=O)N([C@H](C)CO)C[C@@H](C)[C@@H](CN(C)C(=O)c1ccc3c(c1)OCO3)O2 | i
C[C@H](CO)N1C[C@H](C)[C@@H](CN(C)Cc2ccccn2)Oc2ncc(C#CCc3ccccc3)cc2C1=O | i
COc1ccc(CC(=O)Nc2ccc(S(N)(=O)=O)cc2)cc1OC | i
C[C@@H]1CN([C@H](C)CO)C(=O)c2cc(C#CC3CC3)cnc2O[C@H]1CN(C)C(=O)CC1CC1 | i
Cc1ccccc1-c1nc(SCC(=O)c2cccc([N+](=O)[O-])c2)n[nH]1 | i
COC(=O)c1cccc(-n2c(CCC(=O)O)ccc2-c2ccc(C)cc2)c1 | i
CO[C@H](CN(C)C(=O)C1CCOCC1)[C@H](C)CN(C(=O)Nc1ccc(C(F)(F)F)cc1)[C@H](C)CO | i
O=C(COc1ccccc1[N+](=O)[O-])Nc1ccc2oc(-c3ccc(Cl)cc3)nc2c1 | i
C/C=C/c1cnc2c(c1)C(=O)N([C@@H](C)CO)C[C@H](C)[C@@H](CN(C)CC1CCCC1)O2 | i
O=C(CCN1C(=O)C2C3c4ccccc4C(c4ccccc43)C2C1=O)Oc1ccccc1[N+](=O)[O-] (stereo not given) | i
COC(=O)c1ccccc1NC(=O)CN(C)S(=O)(=O)c1ccccc1 | i
C[C@@H]1CN([C@H](C)CO)S(=O)(=O)c2ccc(-c3cncnc3)cc2O[C@H]1CN(C)C(=O)Cc1ccccc1 | i
O=C(CSc1nc(-c2ccccc2)cc(C(F)(F)F)n1)Nc1cccc(Cl)c1Cl | i
C[C@@H]1CN([C@@H](C)CO)C(=O)c2cc(-c3ccccc3F)cnc2O[C@@H]1CN(C)C | i
CCOC(=O)c1sc(NC(=S)Nc2cnccn2)c(C(=O)OCC)c1C | i
CCNC(=O)C[C@@H]1C=C[C@@H](NC(=O)C2CCC2)[C@H](CO)O1 | i
CN(C)c1ccc2c(c1)[C@@H]1C[C@H](CC(=O)NCc3ccc(Oc4ccccc4)cc3)O[C@@H](CO)[C@@H]1O2 | i
O=C(CSc1nc2ccccc2o1)Nc1ccc(N2CCOCC2)c(Cl)c1 | i

An excerpt (hit frequency here may not be typical).
